Bioassay records deposited in PubChem BioAssay by National Center for Advancing Translational Sciences (NCATS).
NS1 function inh – qHTS Assay for Inhibitors of Influenza NS1 Protein Function | S. cerevisiae slowed by influenza A NS1, growth recovery by OD600 | AID 2326, 2010 | 270,000 tested, 0.4% active | Potency, µM (titrated, usually from 46.1 µM), for inactives: at the highest dose activity, positive = more growth; active means well fitted rising curve with a large enough effect; inconclusive means small, poorly fitted or top-dose-only effect; inactive means no such curve, though single readings can be large or run the other way; note: nearly all actives have a fitted effect of over 50% in size
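OD600 was taken as the measure of yeast growth restored by compound in an NS1-expressing S. cerevisiae strain. Cells had been washed out of glucose medium and diluted 1:100 into galactose -URA medium, pH 6.0.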
SARS PLP yeast – qHTS of Yeast-based Assay for SARS-CoV PLP | S. cerevisiae expressing SARS-CoV PLpro, growth rescue; control for the full effect not named in the record | Potency, µM (highest dose often 32.9 µM), without a hit: at the highest dose activity, positive = growth rescue | 330,000 tested, 0.19% active; active means well fitted rising curve with a large enough effect; inconclusive means small, poorly fitted or top-dose-only effect; inactive means no such curve, though single readings can be large or run the other way; note: 0% is about no effect; nearly all actives have a fitted effect of over 55% in size; growth read by luminescence after 48 h
RE007 growth inh – qHTS Assay for Inhibitors of the HIV-1 protein Vpr. S. pombe RE007 Vpr strain, BacTiter-Glo ATP luminescence, 24 h; control for the full effect not named in the record. Potency, µM (titrated, usually from 92.2 µM), without a hit: at the top dose activity change, negative = less growth. 360,000 tested, 0.21% active. AID 651644, 2012; active = well fitted falling curve with a large enough effect; inconclusive = small, poorly fitted or top-dose-only effect; inactive = no such curve, though single readings can be large or run the other way;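 note: % is set by controls: 0 for no effect and ±100 for the full control effect; nearly all actives have a fitted effect of over 50% in size; the assay follows cell death caused by Vpr and the record does not say whether a fall means rescue or toxicity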
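Fission yeast RE007 carrying one integrated HIV-1 vpr copy, seeded at OD 0.01 in PMG+AL medium with 23 nL pinned compound. Grown 24 h at 30 degrees; viability read by BacTiter-Glo luminescence after 5 min.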
2A StopGo – High Throughput Screening for Foot and Mouth Disease Virus Antivirals. human cells with a luciferase reporter of 2A StopGo recoding; control for the full effect not named in the record. 410,000 tested, 1.2% active. AID 1159524, 2015. Potency, µM (titrated, usually from 57.9 µM), inactives show at the highest dose signal change, negative = less light; active = well fitted falling curve with a large enough effect; inconclusive = small, poorly fitted or top-dose-only effect; inactive = no such curve, though single readings can be large or run the other way; tested in HEK293T cells; note: % is set by controls: 0 for no effect and ±100 for the full control effect; nearly all actives have a fitted effect of over 45% in size; luciferase light after 4 h
Lassa entry inh – qHTS for Inhibitors of binding or entry into cells for Lassa Virus. Lassa virus pseudotype entry inhibition, cell reporter; control for the full effect not named in the record. Potency, µM (highest dose often 37.9 µM), for the others: at the highest dose activity change, negative = inhibition, usual class: inhibitors. 300,000 tested, 1.2% active; active means well fitted inhibition curve with a large enough effect; inconclusive means small, poorly fitted or top-dose-only effect, or effect the other way; inactive means flat fitted curve, though single readings scatter; tested in HEK293 cells; note: % is set by controls: 0 for no effect and ±100 for the full control effect; nearly all actives have a fitted effect of over 50% in size; luciferase read-out
Cruzain Triton – qHTS Assay for Promiscuous and Specific Inhibitors of Cruzain (with detergent); Cruzipain (Trypanosoma cruzi), P25779; 200,000 tested, 0.43% active; Potency, µM, for the others: max response, negative = inhibition, most hits filed as inhibitors; purified cruzain, Z-FR-AMC fluorescence, 0.01% Triton;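 note: plate controls were neutral wells for no effect and buffer without enzyme for full effect; nearly all actives have a fitted effect of over 40% in size; top concentration of the series not given in the record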
Target sequence (P25779 123-467 limits assumed): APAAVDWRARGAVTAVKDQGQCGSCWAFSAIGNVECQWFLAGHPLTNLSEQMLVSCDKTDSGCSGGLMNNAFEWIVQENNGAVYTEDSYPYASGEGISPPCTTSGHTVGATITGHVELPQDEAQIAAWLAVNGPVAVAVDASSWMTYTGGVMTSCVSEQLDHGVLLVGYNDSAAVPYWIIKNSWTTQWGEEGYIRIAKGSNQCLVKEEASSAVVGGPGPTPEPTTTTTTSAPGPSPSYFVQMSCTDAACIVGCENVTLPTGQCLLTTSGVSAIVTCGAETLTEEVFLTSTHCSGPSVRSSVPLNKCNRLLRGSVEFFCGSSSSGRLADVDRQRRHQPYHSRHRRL
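15 min RT preincubation of 1.5 nM cruzain with compound, then 2 uM Z-FR-AMC added; kinetic AMC fluorescence, 60 s delta. Triton X-100 0.01%, pH 5.5.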
MARV entry inh – qHTS for inhibitors of binding or entry into cells for Marburg Virus | Marburg virus pseudotyped entry inhibition, cell reporter; control for the full effect not named in the record; about a third of the inactives were read at about 46 µM | 300,000 tested, 1.8% active | Potency, µM (titrated, usually from 37.8 µM), without a hit: at the top dose activity change, negative = inhibition, hits mostly inhibitors; active = well fitted inhibition curve with a large enough effect; inconclusive = small, poorly fitted or top-dose-only effect, or effect the other way; inactive = flat fitted curve, though single readings scatter; tested in HEK293 cells; about a fifth of its hits are not listed in these tables; note: % is set by controls: 0 for no effect and ±100 for the full control effect; luciferase read-out
Cruzain noTriton – qHTS Assay for Promiscuous and Specific Inhibitors of Cruzain (without detergent); 200,000 tested, 2.3% active; purified cruzain, Z-FR-AMC fluorescence, no detergent; Potency, µM, without a hit: max response, negative = inhibition, actives largely listed as inhibitors; Cruzipain (Trypanosoma cruzi), P25779; AID 1476, 2009;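 note: plate controls were enzyme without inhibitor for no effect and buffer without enzyme for full effect; nearly all actives have a fitted effect of over 40% in size; top concentration of the series not given in the record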
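Purified cruzain at 1.5 nM, pre-incubated 15 min with compound at room temperature in 100 mM sodium acetate pH 5.5, 5 mM DTT, 0.00005% Triton X-100. Reaction started with 2 uM Z-FR-AMC; AMC fluorescence increase over 60 s gives rate.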
* = called active by the depositor; u = inconclusive; x = no result given; & = joins results of further samples; [ ] = remark or other dose. Unless noted, calls come from the whole dose curve; as a rule, active = well fitted curve in the direction sought with a large enough effect; inconclusive = small, poorly fitted or top-dose-only effect, or another doubt; inactive = no such curve, though single readings can be large; an effect the other way counts as inactive or inconclusive. Potency is the fitted concentration of half-maximal effect.

SMILES | NS1 function inh | SARS PLP yeast | RE007 growth inh | 2A StopGo | Lassa entry inh | Cruzain Triton | MARV entry inh | Cruzain noTriton
CCOc1cccc(OCCOCCN(C)C)c1 | -2% | -5% | x | -18% | 11% | -0.6% | 18% | -8%
Cc1cc(C)cc(C(=O)NC(CC(N)=O)c2ccc(N3CCC(Br)CC3)c([N+](=O)[O-])c2)c1 (stereo not drawn) | u | -1% | 1% | -7% | x | x | x | x
O/N=C/c1ccccc1OCc1ccccc1Cl | -4% | -15% | 45µM* | 2% | -12% | -16% | 22% | -11%
COc1cc2nc(CN(C)Cc3ccc(Cl)cc3)[nH]c(=O)c2cc1OC | 1% | 2% | 1% | -28% | -5% | x | -8%[14.2 µM] | x
COc1ccc(CCNC(=O)C(=O)NCC(c2cccnc2)N2CCN(c3ccccc3)CC2)cc1 (stereo not drawn) | x | x | x | u | 11%[46.1 µM] | -13% | x | u
Cc1c(C)c2c(OCC(=O)NC3CC3)cc3c(c2oc1=O)CCC(C)(C)O3 | 8% | -8% | -1% | -19% | x | x | x | x
O=C(c1c[nH]c(C(=O)C(Cl)(Cl)Cl)c1)c1ccccc1F | 2% | 0% | 0% | u | x | x | x | x
CCN(CC)S(=O)(=O)c1ccc(-c2nnc(SCC(=O)Nc3nc(C)cs3)o2)cc1 | -10% | 4% | -18% | x | 0% | 2.7% | 8%&20% | 10%
CCCn1nc(C(=O)OCC(=O)Nc2cccc(S(N)(=O)=O)c2)c2ccccc2c1=O | x | 1% | 9% | 18% | -17%[46.1 µM] | x | u | x
COc1cccc(NC(=O)CCNS(=O)(=O)c2cccc3nsnc23)c1 | x | 1% | 15% | -3% | 6% | x | 3%[46.1 µM] | x
CCOC(=O)c1cn2cccnc2n1 | 4% | 3% | 22% | -27% | -1% | 1.5% | 2% | -6%
Cc1cc(C(=O)OCC(=O)c2c(N)n(C)c(=O)n(C)c2=O)c(C)o1 | 5% | 5% | 18% | 4% | 12% | -3.8% | -1% | 7%
O=C(Cc1n[nH]c(=O)c2ccccc12)N1CCN(c2ccc(F)cc2)CC1 | x | 0% | 27% | u | 2% | x | 2% | x
COc1cc2c(cc1OC)-c1cc(NC3CCCCCCC3)nc(=O)n1CC2 | -51% | 14% | 1% | 0% | 14µM* | -29% | u | u
CNCCc1c[nH]c2ccccc12 | 5% | -2% | -3% | -27% | x | x | x | x
CCN(CC)CCNC(=O)CCn1nc(-c2ccc(Cl)cc2)ccc1=O | -1% | -3% | -8% | -8% | x | x | x | x
CCC(C)NC(=O)C(CCSC)NC(=O)c1ccccc1 (stereo not drawn) | -7% | 4% | 4% | -8% | 1% | 2.7% | -3% | 2%
Cc1ccc(C(C)C)c(OCC(=O)NNC(=O)Cc2ccc(S(=O)(=O)N3CCOCC3)s2)c1 | x | 0% | 3% | 6% | -15%[46.1 µM] | x | u | x
CCOC(=O)C1=C(C)OC(N)=C(C#N)C1c1cc2ccccc2nc1N1CCCCC1 (stereo not drawn) | 1% | -2% | -5% | -12% | u | 2.7% | 1% | -2%
CCN(CC(=O)Nc1ccc(NC(C)=O)cc1)C(=O)C1(c2ccccc2)CC1 | x | -2% | -18% | -25% | 22% | x | 0% | x
CCCCN(C)C(=O)c1sc2ncn(CC)c(=O)c2c1C | 0% | x | -1% | -8% | 4% | 3.5% | 5% | -5%
COC(=O)c1cc(S(=O)(=O)NCC2CCN(Cc3cc(C)ccc3C)CC2)cn1C | 2% | 1% | -15% | -15% | x | x | x | x
COCCNC(=S)N1CCN(c2nc(-c3ccccc3)cs2)CC1 | 7% | 2% | -13% | -21% | x | x | x | x
O=C(Cn1nc2n(c1=O)-c1ccccc1SC2)N/N=C/c1ccncc1 | 5% | 0% | 22% | -21% | -6% | x | u | x
Cc1ccc(-n2nnnc2-c2cnc(-c3cccnc3)nc2C(F)(F)F)cc1 | -61% | 8% | -16% | 22µM* | u | -2.9% | -37% | 4%

5 successive records already listed, quoted:
SMILES | NS1 function inh | SARS PLP yeast | RE007 growth inh | 2A StopGo | Lassa entry inh | Cruzain Triton | MARV entry inh | Cruzain noTriton
CCCCN(C)C(=O)c1sc2ncn(CC)c(=O)c2c1C | 0% | x | -1% | -8% | 4% | 3.5% | 5% | -5%
COC(=O)c1cc(S(=O)(=O)NCC2CCN(Cc3cc(C)ccc3C)CC2)cn1C | 2% | 1% | -15% | -15% | x | x | x | x
COCCNC(=S)N1CCN(c2nc(-c3ccccc3)cs2)CC1 | 7% | 2% | -13% | -21% | x | x | x | x
O=C(Cn1nc2n(c1=O)-c1ccccc1SC2)N/N=C/c1ccncc1 | 5% | 0% | 22% | -21% | -6% | x | u | x
Cc1ccc(-n2nnnc2-c2cnc(-c3cccnc3)nc2C(F)(F)F)cc1 | -61% | 8% | -16% | 22µM* | u | -2.9% | -37% | 4%

The list continues:
SMILES | NS1 function inh | SARS PLP yeast | RE007 growth inh | 2A StopGo | Lassa entry inh | Cruzain Triton | MARV entry inh | Cruzain noTriton
CCOC(=O)c1c(-c2ccc(OC)c(OC)c2)csc1NC(=O)c1ccc(C)cc1 | x | x | x | -1% | -15%[46.1 µM] | -1.6% | -2%[46.1 µM] | 5%
N#CCSc1nccc(-c2cc(Cl)sc2Cl)n1 | 0% | -3% | -4% | -15% | 12% | -3.5% | u | -3%
CCOC(=O)c1cc2ccccc2n1CCN(CC)CC | 6% | 8% | -19% | -9% | u | 0.1% | u | -3%
O=C(OCn1nnc2ccccc2c1=O)C1=COCCO1 | 3% | -4% | 21% | 0% | u | 0.1% | 28% | -1%
COc1ccc(NC(=O)C2CCCN2C(=O)OC(C)(C)C)cc1 (stereo not drawn) | -1% | 0% | -2% | 7% | 0%[46.1 µM] | x | 27%[46.1 µM] | x
O=S(=O)(c1cccc(F)c1)N1CCCN(c2ccc(C(F)(F)F)cn2)CC1 | 2% | -3% | 26% | u | -7% | x | -28% | x
Cc1ccc(C)c(NC(=O)NCc2ccccn2)c1 | 13% | 3% | 3% | 49%[activator] | 12%[46.1 µM] | x | u | x
COc1ccc(-c2nc(CSCC(=O)N3CCc4ccccc4C3)c(C)o2)cc1OC | 1% | 4% | -13% | u | x | 1.2% | x | 18%
CCOc1ccc(S(=O)(=O)Nc2ccccc2C(=O)NCc2ccco2)cc1 | -2% | 1% | 2% | 3% | -2% | -12% | -17% | 6%
O=C(c1ccco1)N1CCN(C(=O)c2cc3ccccc3oc2=O)CC1 | 6% | 3% | 2% | -21% | 15% | x | 9% | x
Cc1ccc2nc3c(cc2c1)c(NC(=O)c1ccco1)nn3CC(C)C | 2% | -1% | 1% | -20% | -10% | x | -3% | x
COc1ccc(NC(=O)Cn2c(=O)n(Cc3nc(-c4ccccc4)no3)c(=O)c3ccccc32)cc1Cl | x | x | x | 0% | 5%[46.1 µM] | -2.1% | x | -9%
C=CCN(c1ccccc1OC)S(=O)(=O)c1cccc(C(=O)NCc2cccs2)c1 | x | 1% | 4% | -20% | u | x | u | x
COc1ccc(NC(=O)c2oc3ccccc3c2CSC)cc1S(=O)(=O)N1CCOCC1 | x | -12% | 11% | -4% | 1%[46.1 µM] | x | 5%[46.1 µM] | x
CCc1c(-c2ccccc2)nc2sc3c(c2c1N)CCCC3 | -8% | -5% | -7% | -50% | u | x | u | x
O=C(NCc1ccccc1C(F)(F)F)C1CC(c2cccc(F)c2)=NO1 (stereo not drawn) | -1% | 0% | 5% | 25% | x | x | x | x
COc1ccccc1-n1c(CNC(=O)COc2ccccc2)n[nH]c1=S | -4% | 4% | 3% | x | u | 4.9% | -1% | 1%
CC(=NCCCNC1CCCCC1)C1=C(O)CC(C)(C)CC1=O | 5% | 2% | -13% | -23% | u | -3.3% | 10% | -2%
CC(=O)N(C(C)=O)c1nc2nc(C)cc(C)n2n1 | 3% | -1% | -13% | -17% | 4% | x | 32%[46.1 µM] | x
COc1ccc(N2CCN(S(=O)(=O)c3cc4c5c(c3)C(C)C(=O)N5CCC4)CC2)cc1 (stereo not drawn) | x | 5% | -11% | -2% | -24% | x | 5% | x
COC(=O)c1cc(OCC(=O)Nc2ccc3c(c2)CCC3)cc(C(=O)OC)c1 | x | -1% | 9% | -11% | 8% | x | 0% | x
CC(=O)N(C1=NCCCS1)c1ccc(F)cc1 | 0% | 4% | -9% | -20% | 8% | 2.1% | 14% | -3%
COc1ccc(-c2cc3c(=O)n(CC(=O)NCCCc4ccccc4)ncn3n2)cc1 | 3% | 5% | -9% | 8% | x | x | x | x
O=C(c1ccccc1Br)N1CCn2c1nc1ccccc12 | 0% | -1% | 8% | -7% | x | x | x | x
CCOC(=O)c1ccccc1NC(=O)c1sc2ncn(CC)c(=O)c2c1C | x | x | x | -9% | -15%[46.1 µM] | -1.8% | x | -13%
O=C(CSc1nc2ccccc2c(=O)n1Cc1ccco1)NCCN1C(=O)CSC1=O | 1% | 0% | 7% | -12% | -12% | x | -2%[46.1 µM] | x
Cc1ccc(S(=O)(=O)N2CCOCC2)cc1NC(=O)Cn1c(=O)ccn(Cc2ccccc2)c1=O | x | x | -12% | -7% | 0% | x | 30% | x
CCCOC1CCCN(C(=O)c2cc(COc3c(F)cccc3F)on2)C1 (stereo not drawn) | -8% | 2% | -29% | 51%[activator] | 23% | x | 1% | x

Grouped by structure, the compounds so far containing bromine.
SMILES | NS1 function inh | SARS PLP yeast | RE007 growth inh | 2A StopGo | Lassa entry inh | Cruzain Triton | MARV entry inh | Cruzain noTriton
Cc1cc(C)cc(C(=O)NC(CC(N)=O)c2ccc(N3CCC(Br)CC3)c([N+](=O)[O-])c2)c1 (stereo not drawn) | u | -1% | 1% | -7% | x | x | x | x
O=C(c1ccccc1Br)N1CCn2c1nc1ccccc12 | 0% | -1% | 8% | -7% | x | x | x | x

Outcome played no part in choosing rows (roughly 4.7% active in at least one column).
